FGF22 binding – binders of recombinant human FGF22 by thermal shift; AID 651658; actives 1.5% (n = 340,000); Q9HCT0; SYPRO orange fluorescence; percent of sucrose octasulfate shift, DMSO zero; calls only at 9.99 µM;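 active = melting point raised past a set limit in the mean and every replicate; three in four hits are not shown here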
Target sequence (Q9HCT0 whole entry, looked up): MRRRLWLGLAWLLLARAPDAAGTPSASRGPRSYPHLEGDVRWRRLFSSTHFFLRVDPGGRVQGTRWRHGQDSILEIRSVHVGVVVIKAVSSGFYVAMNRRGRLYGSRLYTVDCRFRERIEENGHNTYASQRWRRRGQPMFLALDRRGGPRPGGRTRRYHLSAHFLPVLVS
Calls only; i = inactive.

SMILES | FGF22 binding
CO[C@H]1CN(C)C(=O)c2ccc(NS(C)(=O)=O)cc2OC[C@H](C)N(C(=O)C2CCOCC2)C[C@@H]1C | i
CCCC(=O)N1CCC2(CC1)CN(Cc1ccncc1)[C@@H](CO)c1[nH]c3cc(OC)ccc3c12 | i
COc1ccc(NC(=O)Nc2ccc3c(c2)C(=O)N([C@H](C)CO)C[C@H](C)[C@@H](CN(C)C(=O)CCCN(C)C)OCCCC[C@H](C)O3)cc1 | i
CCN1[C@@H]2c3ccc(-c4ccc(F)cc4)c(=O)n3C[C@@H]2[C@@H](CO)[C@@H]1C(=O)NCCc1cn(C)cn1 | i
CC(=O)Nc1ccc2c(c1)C(=O)N(C)[C@H]1CC[C@H](CC(=O)Nc3ccccc3Cl)O[C@@H]1CO2 | i
COCC(=O)Nc1ccc2c(c1)[C@@H]1C[C@@H](CC(=O)NCc3ccccc3OC)O[C@@H](CO)[C@@H]1O2 | i
COc1cccc(C#Cc2ccc3c(c2)O[C@@H](CN(C)C(C)=O)[C@H](C)CN([C@H](C)CO)S3(=O)=O)c1 | i
O=C(C[C@H]1CC[C@H]2[C@@H](COC[C@H](O)CN2Cc2cccc(C(F)(F)F)c2)O1)NCc1ccc(Cl)cc1 | i
C[C@@H]1CN([C@@H](C)CO)C(=O)c2c(c3ccccc3n2C)-c2ccccc2CO[C@@H]1CN(C)S(C)(=O)=O | i
CO[C@H]1CN(C)C(=O)c2ccc(NC(=O)c3ccccc3F)cc2OC[C@H](C)N(C(=O)c2ccccc2F)C[C@H]1C | i
CC=Cc1ccc2n(c1=O)C[C@@H]1[C@@H](CO)[C@H](C(=O)NCC3CCCCC3)[C@H]2N1C(=O)CC (mixture of isomers) | i
C[C@@H]1CN([C@H](C)CO)C(=O)c2cc(-c3ccncc3)cnc2O[C@H]1CN(C)C(=O)Nc1ccc2c(c1)OCO2 | i
CCCNC(=O)[C@H]1[C@H](CO)[C@H]2Cn3c(ccc(-c4cccc(F)c4)c3=O)[C@@H]1N2CCC | i
COc1ccc(C#Cc2ccc3c(c2)[C@]2(C(=O)N3)[C@H](c3ccc(O)cc3)N3[C@H](c4ccccc4)[C@H](c4ccccc4)OC(=O)[C@H]3[C@@H]2C(=O)NC[C@H](O)c2ccccc2)cc1 | i
O=C(Nc1cccc(Cl)c1)N1C[C@H]2[C@@H](c3ccccc31)[C@H](CO)N2Cc1cccnc1 | i
C[C@@H]1CN([C@H](C)CO)C(=O)Cc2cc(NC(=O)c3ccncc3)ccc2O[C@@H]1CN(C)CC1CCCCC1 | i
C[C@@H]1CN([C@H](C)CO)C(=O)CCCn2nncc2CO[C@@H]1CN(C)S(=O)(=O)c1ccc(-c2ccccc2)cc1 | i
O=C(C[C@@H]1CC[C@@H](NC(=O)Nc2ccc3c(c2)OCO3)[C@@H](CO)O1)NCc1ccc(Cl)cc1 | i
C[C@H](CO)N1C[C@H](C)[C@H](CN(C)C(=O)Nc2cccc3ccccc23)Oc2ccc(NS(C)(=O)=O)cc2CC1=O | i
COc1cc(CN2CC3(CN(C(=O)c4cccnc4)C3)c3c([nH]c4cc(OC)ccc34)[C@@H]2CO)cc(OC)c1 | i
C[C@H](CO)N1C[C@H](C)[C@@H](CN(C)C(=O)C2CC2)Oc2ncc(C#CCc3ccccc3)cc2C1=O | i
CN(C)CCCNC(=O)C[C@H]1CC[C@@H]2[C@H](COc3ccc(NC(=O)c4ccc5c(c4)OCO5)cc3C(=O)N2C)O1 | i
O=C(C[C@H]1CC[C@H](NC(=O)C2CCOCC2)[C@@H](CO)O1)NCc1ccccc1Cl | i
CC(C)c1[nH]nc2c1C(c1cccc(C(F)(F)F)c1)N(c1ccccc1)C2=O (stereo not drawn) | i
CCCC#Cc1ccc2c(c1)O[C@@H](CN(C)CCC)[C@@H](C)CN([C@@H](C)CO)S2(=O)=O | i
O=C(C[C@@H]1CC[C@H](NS(=O)(=O)c2ccccc2)[C@H](CO)O1)NCc1ccccc1F | i
COc1ccc(CN2C[C@@H](C)[C@@H](OC)CN(C)C(=O)c3cc(NC(C)=O)ccc3OC[C@H]2C)cc1 | i
CC(C)NC(=O)N(C)C[C@H]1Oc2c(NS(=O)(=O)c3ccc(F)cc3)cccc2C(=O)N([C@@H](C)CO)C[C@H]1C | i
COc1cccc(S(=O)(=O)Nc2ccc3c(c2)C(=O)N(C)C[C@H](OC)[C@H](C)CN(Cc2ccccc2F)[C@H](C)CO3)c1 | i
O=S(=O)(c1ccccc1)N1[C@@H](CO)[C@@H]2c3ccccc3NC[C@@H]21 | i
COCc1cn(CC[C@H]2CC[C@@H](NC(=O)Nc3ccccc3)[C@H](CO)O2)nn1 | i
Cc1cc(C(=O)Nc2cccc3c2O[C@@H](CN(C)C(=O)NC2CCCCC2)[C@@H](C)CN([C@@H](C)CO)C3=O)n(C)n1 | i
C[C@H](CO)N1C[C@H](C)[C@H](CN(C)C)Oc2cc(C#CC3CC3)ccc2S1(=O)=O | i
C[C@@H]1CN([C@@H](C)CO)S(=O)(=O)c2ccc(-c3ccccc3F)cc2O[C@@H]1CN(C)C(=O)C1CC1 | i
COCC#Cc1ccc2c(c1)O[C@H](CN(C)C(=O)COC)[C@@H](C)CN([C@H](C)CO)S2(=O)=O | i
COc1ccccc1CN1C[C@@H](C)[C@H](OC)CN(C)C(=O)c2cc(NC(=O)Nc3ccccc3OC)ccc2OC[C@H]1C | i
N#C[C@H]1[C@H](c2ccc(C3=CCCC3)cc2)[C@@H](CO)N1C(=O)c1cccc(F)c1 | i
C/C=C/c1ccc([C@H]2[C@H](CO)N(C(C)=O)C23CN(S(C)(=O)=O)C3)cc1 | i
Cc1ccc(S(=O)(=O)N(C)C[C@H]2OCc3cn(nn3)CCCC(=O)N([C@@H](C)CO)C[C@H]2C)cc1 | i
CN1C(=O)c2cc(NC(=O)Nc3ccccc3Cl)ccc2OC[C@H]2O[C@H](CC(=O)O)CC[C@@H]21 | i
COc1cccc(C#Cc2cnc3c(c2)C(=O)N([C@H](C)CO)C[C@H](C)[C@@H](CN(C)C(=O)C2CC2)O3)c1 | i
C[C@H](CO)N1C[C@H](C)[C@H](CN(C)Cc2ccc(Oc3ccccc3)cc2)Oc2ccc(NC(=O)CCC(F)(F)F)cc2CC1=O | i
COc1ccccc1NC(=O)N(C)C[C@@H]1Oc2ncc(Br)cc2C(=O)N([C@H](C)CO)C[C@H]1C | i
CS(=O)(=O)N1[C@H](CO)[C@H](c2ccccc2)C12CN(C(=O)C1CC1)C2 | i
CO[C@H]1CN(C)C(=O)c2ccc(NC(=O)c3nc4ccccc4s3)cc2OC[C@H](C)N(Cc2cncnc2)C[C@@H]1C | i
CO[C@H]1CN(C)C(=O)c2ccc(NC(=O)C3CC3)cc2OC[C@@H](C)N(C(=O)CN2CCOCC2)C[C@@H]1C | i
CC(=O)N(C)C[C@@H]1Oc2ncc(C#CC3(O)CCCC3)cc2C(=O)N([C@@H](C)CO)C[C@H]1C | i
COc1ccc(NC(=O)Nc2cccc3c2O[C@@H](CN(C)Cc2ccc(C(=O)Nc4ccccc4N)cc2)[C@@H](C)CN([C@@H](C)CO)C3=O)cc1 | i
CCCNC(=O)N(C)C[C@@H]1Oc2cc(C#CCC(C)C)ccc2S(=O)(=O)N([C@@H](C)CO)C[C@@H]1C | i
CN(C)C(=O)c1cccc(-c2ccc3n(c2=O)C[C@H]2[C@H](CO)[C@@H](C(=O)NCC4CC4)N[C@@H]32)c1 | i

Following part:
SMILES | FGF22 binding
C[C@@H]1CN([C@H](C)CO)C(=O)c2cc(NS(=O)(=O)c3ccc(Cl)cc3)ccc2O[C@@H]1CN(C)CC1CCCCC1 | i
CCCNC(=O)N1[C@@H](CO)[C@@H]2c3ccccc3N(C(=O)Nc3ccccc3)C[C@@H]21 | i
Cc1ccc(S(=O)(=O)Nc2ccc3c(c2)C(=O)N([C@@H](C)CO)C[C@H](C)[C@@H](CN(C)Cc2ccc(C(=O)O)cc2)O3)cc1 | i
CNC[C@H]1Oc2ccc(NS(=O)(=O)c3ccc(F)cc3)cc2CC(=O)N([C@H](C)CO)C[C@@H]1C | i
CCNC(=O)[C@H]1[C@H](CO)[C@H]2Cn3c(ccc(-c4cncnc4)c3=O)[C@H]2N1C(=O)c1ccccc1F | i
O=C(C[C@H]1CC[C@@H](NS(=O)(=O)c2ccc(F)cc2)[C@@H](CO)O1)NCc1ccncn1 | i
O=C(C[C@H]1C[C@H]2c3cc(NS(=O)(=O)c4ccc(F)cc4)ccc3O[C@H]2[C@H](CO)O1)NCc1ccccc1 | i
COCC(=O)N1[C@H](C#N)[C@@H](c2ccccc2-c2ccccc2F)[C@H]1CO | i
CC(C)NC(=O)Nc1ccc2c(c1)C(=O)N([C@H](C)CO)C[C@H](C)[C@@H](CN(C)Cc1ccncc1)OCCCC[C@@H](C)O2 | i
COc1cccc(CNC(=O)C[C@H]2C=C[C@H](NC(C)=O)[C@H](CO)O2)c1 | i

Quoted at random: 6 records from the list
SMILES | FGF22 binding
CNC[C@H]1Oc2ccc(NS(=O)(=O)c3ccc(F)cc3)cc2CC(=O)N([C@H](C)CO)C[C@@H]1C | i
CCCNC(=O)N1[C@@H](CO)[C@@H]2c3ccccc3N(C(=O)Nc3ccccc3)C[C@@H]21 | i
COCC(=O)N1[C@H](C#N)[C@@H](c2ccccc2-c2ccccc2F)[C@H]1CO | i
O=C(C[C@H]1C[C@H]2c3cc(NS(=O)(=O)c4ccc(F)cc4)ccc3O[C@H]2[C@H](CO)O1)NCc1ccccc1 | i
CC(C)NC(=O)Nc1ccc2c(c1)C(=O)N([C@H](C)CO)C[C@H](C)[C@@H](CN(C)Cc1ccncc1)OCCCC[C@@H](C)O2 | i
CCNC(=O)[C@H]1[C@H](CO)[C@H]2Cn3c(ccc(-c4cncnc4)c3=O)[C@H]2N1C(=O)c1ccccc1F | i

Some of these compounds in order of molecular weight, largest number first:
SMILES | FGF22 binding
Cc1ccc(S(=O)(=O)Nc2ccc3c(c2)C(=O)N([C@@H](C)CO)C[C@H](C)[C@@H](CN(C)Cc2ccc(C(=O)O)cc2)O3)cc1 | i
C[C@@H]1CN([C@H](C)CO)C(=O)c2cc(NS(=O)(=O)c3ccc(Cl)cc3)ccc2O[C@@H]1CN(C)CC1CCCCC1 | i
O=C(C[C@H]1C[C@H]2c3cc(NS(=O)(=O)c4ccc(F)cc4)ccc3O[C@H]2[C@H](CO)O1)NCc1ccccc1 | i
COc1cccc(CNC(=O)C[C@H]2C=C[C@H](NC(C)=O)[C@H](CO)O2)c1 | i

(further entries)
SMILES | FGF22 binding
CCCNC(=O)N1C[C@H](O)COC[C@@H]2O[C@@H](CC(=O)N3CCOCC3)CC[C@H]21 | i
CN1C(=O)c2cc(NC(=O)C3CCOCC3)ccc2OC[C@@H]2O[C@@H](CC(=O)NCC3CCCCC3)CC[C@H]21 | i
C[C@@H]1CN([C@@H](C)CO)C(=O)c2cc(NS(=O)(=O)c3ccc(Cl)cc3)ccc2O[C@H]1CN(C)Cc1ccc(C(=O)Nc2ccccc2N)cc1 | i
C[C@H]1CN([C@@H](C)CO)C(=O)c2cc(NC(=O)CCN3CCOCC3)ccc2O[C@@H]1CN(C)Cc1ccc(-c2ccccc2)cc1 | i
CCCC(=O)N1C[C@@H]2[C@H](c3ccccc31)[C@H](CO)N2C(=O)CC1CC1 | i
C[C@@H]1CN([C@H](C)CO)C(=O)c2cccc(NC(=O)Nc3ccc(F)cc3)c2O[C@H]1CN(C)Cc1ccncc1 | i
CC(C)NC(=O)N(C)C[C@@H]1OCCCC[C@@H](C)Oc2ccc(NS(=O)(=O)c3ccccc3)cc2C(=O)N([C@H](C)CO)C[C@@H]1C | i
O=C1CN(S(=O)(=O)c2cccc(F)c2)C[C@@H]2[C@@H](c3ccc(C4=CCCC4)cc3)[C@H](CO)N12 | i
Cc1noc(C)c1S(=O)(=O)N(C)C[C@@H]1Oc2ccc(NC(=O)CCN3CCOCC3)cc2CC(=O)N([C@@H](C)CO)C[C@@H]1C | i
COc1ccccc1CN1C[C@@H](C)[C@@H](OC)CN(C)C(=O)c2cc(NC(C)=O)ccc2OC[C@H]1C | i
O=C(CC(F)(F)F)N1C[C@@H]2[C@H](c3ccccc31)[C@@H](CO)N2C(=O)C1CCCCC1 | i
CCc1cnc(N2[C@H](CO)[C@@H](c3ccc(C#Cc4ccccc4F)cc3)[C@@H]2C#N)s1 | i
O=C(Cc1ccccn1)NCC[C@H]1CC[C@@H](NC(=O)Nc2ccc(F)cc2)[C@@H](CO)O1 | i
C[C@@H]1CN([C@@H](C)CO)C(=O)c2cc(N(C)C)ccc2O[C@@H]1CN(C)S(=O)(=O)c1ccccc1 | i
O=C(C[C@@H]1C[C@H]2c3cc(NC(=O)Nc4ccc(C(F)(F)F)cc4)ccc3O[C@H]2[C@H](CO)O1)NCCc1ccccc1 | i
C/C=C/c1ccc2c(c1)O[C@H](CN(C)C(=O)c1cccnc1)[C@@H](C)CN([C@@H](C)CO)S2(=O)=O | i
O=C(Cc1ccncc1)Nc1ccc2c(c1)[C@@H]1C[C@@H](CC(=O)NC3CCCC3)O[C@H](CO)[C@@H]1O2 | i
COc1ccc(S(=O)(=O)Nc2ccc3c(c2)CC(=O)N([C@@H](C)CO)C[C@@H](C)[C@@H](CN(C)C(=O)Nc2ccc(F)cc2)O3)cc1 | i
Cc1ccccc1S(=O)(=O)N(C)C[C@@H]1OCc2ccccc2-c2ccccc2C(=O)N([C@H](C)CO)C[C@@H]1C | i
CCNC(=O)C[C@H]1CC[C@@H]2[C@H](COc3ccc(NC(=O)Cc4ccccc4)cc3C(=O)N2C)O1 | i
CN(C)c1ccc2c(c1)[C@H]1C[C@H](CC(=O)NCc3ccncc3)O[C@H](CO)[C@H]1O2 | i
C[C@@H]1CCCCO[C@H](CN(C)S(=O)(=O)c2ccc(F)cc2)[C@H](C)CN([C@H](C)CO)C(=O)c2cc(NC(=O)CCC(F)(F)F)ccc2O1 | i
CCCN1[C@@H]2c3ccc(-c4ccc(F)cc4)c(=O)n3C[C@@H]2[C@@H](CO)[C@@H]1C(=O)OC | i
C[C@H](CO)N1C[C@H](C)[C@@H](CN(C)C(=O)Nc2cccc3ccccc23)OCc2cnnn2CCCC1=O | i

Source: PubChem (Broad Institute)

Not all compounds are listed. The share of hits here may be higher or lower than overall.
